Assay outcomes as filed in PubChem.
A647 autofl – qHTS Assay for Spectroscopic Profiling in A647 Spectral Region; Compound fluorescence, A647 channel (570/671 nm), Tris buffer; max dye-equivalent concentration, M; 59,000 tested, under 10 active; AID 592, 2007; active means above 1 µM dye equivalent; inconclusive means 0.1 to 1 µM; inactive means 0.1 µM or less;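 also: values scaled relative to a standard on each plate; highest value over a series up to 38 µM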
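Compound fluorescence was measured in 100 mM Tris buffer, pH 8.0, after 15 min at room temperature, using 570 nm excitation and 671 nm emission filters. Signal was normalized to a per-plate Alexa 647 standard curve and expressed as dye-equivalent concentration at each compound concentration.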
A488 autofl – qHTS Assay for Spectroscopic Profiling in A488 Spectral Region | compound autofluorescence, A488 spectral region, dye equivalency; stronger effect = higher value | max dye equivalency, M | 59,000 compounds, 0.1% hits | AID 591, 2007; active = above 10 nM dye equivalent; inconclusive = 1 to 10 nM; inactive = 1 nM or less; about half of its hits are not listed in these tables;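 also: highest value over a series up to 38 µM; compound alone in buffer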
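Compound autofluorescence was read in 100 mM Tris pH 8.0 after 15 min at room temperature, ex 480 nm/em 540 nm. Intensities were converted to A488 dye-equivalent concentration using an on-plate six-point A488 standard curve.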
AID923 – qHTS Assay for Allosteric/Competitive Inhibitors of Caspase-1: Spectroscopic Profiling in AFC Spectral Region | compound fluorescence, AFC spectral region (405/520 nm); almost no hit is shown here | Potency, µM (highest dose often 57.5 µM), for the others: top-dose fluorescence increase, actives largely listed as activators | 75,000 compounds, 1.1% hits; active = well fitted activation curve with a large enough effect; inconclusive = small, poorly fitted or top-dose-only effect;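 also: potency is read from the fitted curve at half-maximal effect; 0% is about no effect; scaled to a free AFC standard on each plate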
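Compound autofluorescence profiled at 405 nm ex/520 nm em during kinetic caspase 1 run (50 nM enzyme, 5 uM Ac-WEHD-AFC, HEPES pH 7.5, 10 mM DTT). Titration up to 57 uM; baseline from regression intercept, normalized to AFC standard curve.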
Resorufin fluor – qHTS Assay for Spectroscopic Profiling in Resorufin Spectral Region | Compound fluorescence, resorufin region 547/598 nm, buffer; stronger effect = higher value | max dye-equivalent concentration, M | 59,000 compounds, 0.04% hits | AID 588, 2007; active = above 10 nM dye equivalent; inconclusive = 1 to 10 nM; inactive = 1 nM or less; a few of its hits are not listed in these tables; also: highest value over a series up to 38 µM
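Read-out: intrinsic compound fluorescence at ex 547/em 598 nm after 15 min at RT in pH 8.0 Tris (100 mM). Values expressed as resorufin-equivalent concentration from per-plate standard series.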
TSHR ag – qHTS Assay for Agonists of the Thyroid Stimulating Hormone Receptor. Thyrotropin receptor (Homo sapiens), P16473. HEK293-CNG-TSHR cells (CNG channel as cAMP sensor), membrane potential dye, cAMP. Potency, µM (series often up to 57.1 µM), for inactives: at the top dose activation, actives largely listed as activators. 73,000 compounds, 0.48% hits. AID 926, 2007; active = well fitted activation curve of enough size with the parental cells flat; inconclusive = any curve in the parental cells; inactive = parental cells flat and receptor cells flat or falling; also: potency is read from the fitted curve at half-maximal effect; % of control where 0% means no effect; weak receptor curves with flat parental cells got no call and are not listed
Target sequence (P16473 whole entry, looked up): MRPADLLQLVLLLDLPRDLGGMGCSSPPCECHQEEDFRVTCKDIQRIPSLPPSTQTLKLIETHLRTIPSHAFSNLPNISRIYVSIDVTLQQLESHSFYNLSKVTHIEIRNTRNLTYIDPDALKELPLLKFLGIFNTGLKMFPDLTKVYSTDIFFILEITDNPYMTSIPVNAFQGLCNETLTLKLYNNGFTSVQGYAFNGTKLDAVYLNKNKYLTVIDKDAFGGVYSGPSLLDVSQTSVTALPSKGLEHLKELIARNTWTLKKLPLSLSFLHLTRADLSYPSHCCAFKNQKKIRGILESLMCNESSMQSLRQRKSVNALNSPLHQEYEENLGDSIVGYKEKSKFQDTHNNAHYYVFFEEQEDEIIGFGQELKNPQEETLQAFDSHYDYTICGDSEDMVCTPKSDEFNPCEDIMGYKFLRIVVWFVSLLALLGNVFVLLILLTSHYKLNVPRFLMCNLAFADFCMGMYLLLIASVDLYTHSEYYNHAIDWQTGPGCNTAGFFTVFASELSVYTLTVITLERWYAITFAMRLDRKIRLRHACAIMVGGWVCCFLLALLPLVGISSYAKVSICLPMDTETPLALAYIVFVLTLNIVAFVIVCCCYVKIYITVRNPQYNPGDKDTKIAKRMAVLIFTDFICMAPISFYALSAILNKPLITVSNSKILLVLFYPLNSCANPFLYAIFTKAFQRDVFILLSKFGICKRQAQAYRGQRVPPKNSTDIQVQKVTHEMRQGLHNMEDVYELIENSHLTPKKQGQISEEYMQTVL
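HEK 293 cells stably expressing TSHR and a cAMP-gated CNG channel; parental CNG-only cells as counterscreen. Cells preloaded 60 min with membrane potential dye plus 100 uM RO 20-1724, then compound 30 min; fluorescence read at 590 nm.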
The depositor's hits bear a star; i = inactive; ? = inconclusive; . = not tested or not shown; & = joins results of further samples; [ ] = another dose, or the depositor's remark. The list is partial; the hit share may differ from the screen's.

Under each structure – A647 autofl	A488 autofl	AID923	Resorufin fluor	TSHR ag
C/C(N)=C(/C#N)C(=O)COC(=O)c1ccncc1
    1e-09	i	1.4%	i	2%
Cc1nn(CC(=O)NCc2ccccc2)c(=O)c2ccccc12
    1.2e-08	i	-0.1%	i	0%
COCC(=O)Nc1nnc(CCc2ccccc2)s1
    1e-09	i	0.6%	i	-5%
CC1CCN(C(=O)C(Cc2ccccc2)n2cccc2)CC1 (stereo not drawn)
    .	.	-1.8%	.	28%
CCOc1ccc(S(=O)(=O)N(CC(N)=O)c2ccc(C)cc2)cc1
    1e-09	i	-2.4%	i	0%
CCOC(=O)CNC(=O)Cn1cnc2c(nnn2-c2cccc(Cl)c2)c1=O
    1e-09	i	0.9%	i	-3%
Cc1nc2sccn2c(=O)c1CCN1CCC(=C(c2ccccc2)c2ccc(F)cc2)CC1
    1.4e-09&1e-09	i	-2.1%	i	?
Cc1[nH]c(=O)[nH]c(=O)c1S(=O)(=O)N1CCCC(C(=O)N2CCN(c3ccccc3Cl)CC2)C1 (stereo not drawn)
    2.4e-08	i	2.6%	i	-1%
CN(Cc1ccccc1)c1nc2c(c(=O)n(C)c(=O)n2C)n1CCCc1ccccc1
    4.5e-09	i	1.0%	i	.
O=c1c(-c2ccc(F)c(F)c2)nc2cncnc2n1Cc1ccc(F)cc1
    4.1e-09	i	3.8%	i	?
O=C(c1csnn1)N1CCC2(CCN(Cc3nccs3)CC2)CC1
    1e-09	i	1.9%	i	?
O=C(NC1CCCCC1)c1sc(=S)n2c1[nH]c(=O)c1ccccc12
    1.9e-08	i	0.3%	i	?
CCOC(=O)C1CCCN(C(=O)CS(=O)(=O)Cc2ccccc2)C1 (stereo not drawn)
    2.8e-08	i	-1.8%	i	-10%
O=C(CSc1nnc(-c2cccnc2)n1Cc1ccco1)c1ccccc1
    9.6e-09	i	-0.6%	i	4%
CCn1c(SCc2nc3ccccc3[nH]2)nnc1-c1ccncc1
    2.5e-08	i	5.4%	i	-3%
CC1=C(C(=O)OC2CCCCCCC2)C(c2ccc(O)cc2)NC(=O)N1 (stereo not drawn)
    .	.	-0.9%	.	-3%
CN(CCc1ccccn1)c1ccc2c(c1)Cc1ccccc1-2
    3.8e-09	i	0.4%[11.5 µM]	i	-1%[11.4 µM]
CC(=O)[C@@H]1[C@H]2[C@@H](C(=O)[C@H]3OC[C@H]2O3)[C@@H]2C=Cc3ccccc3N12
    2.1e-08	i	.	i	-1%
COc1ccc(C2C(C(N)=O)=C(C)Nc3ncnn32)cc1 (stereo not drawn)
    1.6e-08	i	0.2%	i	-8%
COc1ccc(/C=C/N(CCc2ccc(OC)c(OC)c2)C(C)=O)cc1
    .	.	0.5%[11.5 µM]	.	3%[11.4 µM]
O=C(CN(Cc1ccco1)C(=O)CNS(=O)(=O)c1ccc(Cl)cc1)NC1CCCCC1
    1e-09	i	6.7%	i	?
COC(=O)c1c(C(C)=O)cnc2ccc(Br)cc12
    3.2e-08	i	0.4%	i	.
CC(C)=NOC[C@@H](O)[C@@H]1O[C@@H]2OC(C)(C)O[C@@H]2[C@H]1O
    .	.	-2.4%[11.5 µM]	.	4%[11.4 µM]
c1ccc([C@@H]2CN3CCSC3=N2)cc1
    7e-09&4.5e-09&5.5e-08	i	1.2%[25.7 µM]	i	8%
Clc1ccc(OCc2nnc3n2N=C(c2ccc4c(c2)OCCO4)CS3)c(Cl)c1
    3.2e-08	i	0.7%	i	?
Cn1c(=O)c2c(nc(SCCCO)n2Cc2ccccc2Cl)n(C)c1=O
    1e-09	i	0.3%	i	7%
OC(CN1CCOCC1)CN1CCOCC1
    3.8e-08	i	-0.4%	i	-1%
CC1(C)Oc2ccc3ccc(=O)oc3c2-c2cnoc21
    .	.	4.2%	.	3%
COC(=O)Cc1[nH]nc2c1C(c1c[nH]c3ccccc13)C(C#N)=C(N)O2 (stereo not drawn)
    2.5e-09	i	20%	i	3%
CCCN(Cc1ccccc1)C(=O)Nc1ccc2c(c1)nnn2C
    4.4e-09	i	1.5%	i	2%
COc1ccc(C)cc1NCc1cccc(OC)c1OC
    1e-09	i	-0.4%	i	.
COc1ccc2c(c1)Sc1ccccc1N2CCN(C)C
    1e-09	i	-0.4%	i	-4%
CCSC(C)CC1C/C(=N/O)c2c(CC)noc2C1 (stereo not drawn)
    .	.	0.9%	.	16%
COC(=O)c1ccc(C2c3c(oc4cc(C)c(C)cc4c3=O)C(=O)N2CCCN(C)C)cc1 (stereo not drawn)
    .	.	-2.7%	.	5%
CSCC[C@@H](C(=O)O)N(C)C
    6.1e-08	i	0.5%[11.5 µM]	i	15%[11.4 µM]
Cc1cc(C(F)(F)F)n2ncc(C(=O)O)c2n1
    .	.	3.9%	.	3%
Cc1ccc(Oc2ccc(OCC(=O)NC(C)C(=O)O)cc2)cc1 (stereo not drawn)
    2.9e-08	i	-0.7%	i	-2%
CN1CCN(CCCNC(=O)c2ccc(CSCc3cccc(Cl)c3)o2)CC1
    1e-09	i	2.7%	i	.
COc1cc2c(cc1OC)-c1nnc(C)n1C1(CCCC1)C2
    .	.	1.3%	.	9%
CC(=O)N1CCN(c2ccc(NCc3ccc(C(C)C)cc3)cc2)CC1
    4.7e-09	i	-3.7%	i	?
CC(=O)c1cccc(NC2c3ccccc3C(=O)N2Cc2ccc3c(c2)OCO3)c1 (stereo not drawn)
    .	.	0.2%	.	24%
CCOP(=O)(c1ccc(N(C)C)cc1)C(O)c1cc(OC)c(OC)c(OC)c1 (stereo not drawn)
    1.6e-08	i	-1.1%	i	11%
CCOc1cccc(C(=O)Nc2cccc(-c3nc4ncccc4o3)c2C)c1
    1e-09	i	-1.4%	i	?
CC(C(=O)NC1=NCCS1)N1C(=O)C2CC=CCC2C1=O (stereo not drawn)
    1.8e-09	i	-0.1%	i	1%
CCn1c(SCC(=O)N2c3ccccc3CCc3ccccc32)nc2c1c(=O)n(C)c(=O)n2C
    1.8e-08	i	-0.2%	i	18%
O=c1c2ccccc2nnn1CSc1nnc(-c2ccc3c(c2)OCO3)o1
    1e-09	i	-1.0%	i	.
O=c1[nH]c(=S)c2c(n1-c1ccccc1)CCC2
    2.2e-09	i	-3.2%	i	.
COc1ccc(OCC(=O)N2CCN(C(=O)c3cccc4ccccc34)CC2)cc1
    1e-09	i	.	i	.
COc1ccc(C(=O)N2CCN(C(=O)c3ccco3)CC2)cc1OC
    1.8e-09	i	0.7%	i	4%
CC(=O)N1c2ccccc2C(C)CC12CCCCC2 (stereo not drawn)
    6.7e-09	i	1.5%	i	.
CS(=O)(=O)Nc1cccc(-c2nc(Nc3ccncc3)c3ccccc3n2)c1
    1e-09	i	2.5%	i	4%
Cc1cc(=O)c2n(Cc3ccccc3Cl)nc[n+]2[nH]1
    2.7e-08	i	1.3%	i	0%
CC1CCCCN1C(=O)COc1ccc(NC(=O)c2ccco2)cc1 (stereo not drawn)
    4.4e-08	i	-0.4%	i	18%
CCOc1cc(S(=O)(=O)N2CCOCC2)ccc1F
    1.4e-09	i	1.7%	i	3%
COc1ccc(CCNC(=O)CSc2nc3c(c(=O)n(C)c(=O)n3C)n2C(C)C)cc1OC
    1.6e-08	i	3.0%	i	2%
CCn1c(=O)c(C(=O)Nc2nc3ccccc3[nH]2)c(O)c2ccccc21
    2e-09	i	3.3%	i	-14%
Cc1ccc(-c2nc(-c3ccccn3)no2)cc1Cl
    1e-09	i	1.1%	i	.
CN(C)CC(=O)c1ccc(-c2ccccc2)cc1
    .	.	-0.4%	.	13%
Cc1n[nH]c(=O)nc1N1CCc2ccccc2C1
    5.5e-09	i	-1.3%	i	0%
COc1ccccc1S(=O)Cc1ccc(C(=O)NCc2ccccc2Cl)o1 (stereo not drawn)
    .	.	-0.5%	.	6%

Whole records from above. Order of values: A647 autofl, A488 autofl, AID923, Resorufin fluor, TSHR ag
CN1CCN(CCCNC(=O)c2ccc(CSCc3cccc(Cl)c3)o2)CC1 reads 1e-09, i, 2.7%, i, .
O=c1c2ccccc2nnn1CSc1nnc(-c2ccc3c(c2)OCO3)o1 reads 1e-09, i, -1.0%, i, .
CC1CCN(C(=O)C(Cc2ccccc2)n2cccc2)CC1 (stereo not drawn) reads ., ., -1.8%, ., 28%
CN(CCc1ccccn1)c1ccc2c(c1)Cc1ccccc1-2 reads 3.8e-09, i, 0.4%[11.5 µM], i, -1%[11.4 µM]
CCCN(Cc1ccccc1)C(=O)Nc1ccc2c(c1)nnn2C reads 4.4e-09, i, 1.5%, i, 2%

Next section:
Under each structure – A647 autofl	A488 autofl	AID923	Resorufin fluor	TSHR ag
CCC(C)c1ccc(O)c(NC(=O)c2ncn[nH]2)c1 (stereo not drawn)
    4.8e-09	i	-2.0%	i	-1%
COCCn1c(SCC#N)nnc1-c1ccc2c(c1)OCO2
    1e-09	i	1.1%	i	2%
O=C(CSc1nnc(-c2cccnc2)n1-c1ccccc1)Nc1ccccn1
    1e-08	i	-0.7%	i	5%
O=C(NCc1ccco1)C1CC(=O)N(c2ccc(O)cc2)C1 (stereo not drawn)
    3.5e-09	i	-3.5%	i	1%
CC1CCCCN1S(=O)(=O)c1ccc2c(c1)oc(=O)n2CC(=O)O (stereo not drawn)
    2.2e-08	i	-1.2%	i	7%
Cn1c(=O)c2cc(S(=O)(=O)NCCC(=O)Nc3ccccc3F)ccc2n(C)c1=O
    1e-09	i	-0.2%	i	-1%
Cc1ccc(S(=O)(=O)NC(=O)N2CCCC(C)(C)C2)cc1
    1.5e-09	i	-0.4%	i	-12%
CS(=O)(=O)c1ccc2nc(NC(=O)CN3CCN(Cc4ccccc4)CC3)sc2c1
    1e-09	i	-0.3%	i	-1%
O=C(Nc1nc2ccccc2n1CCOc1ccccc1)c1ccco1
    5.5e-09	i	-2.6%	i	?
COc1ccc(-n2c(Cc3cccn3C)nnc2SCC(N)=O)cc1
    .	.	3.8%	.	1%
O=C1NC(Cc2c[nH]c3ccccc23)C(=O)N1CCOc1ccc(F)cc1 (stereo not drawn)
    4.2e-09	i	-1.6%	i	-23%
CC(C)(SCc1ccccc1)[C@H](N)C(=O)O
    1.3e-09	i	-1.1%[11.5 µM]	i	-5%[11.4 µM]
O=C(NC1CCCCCC1)c1c(O)c2cccc3c2n(c1=O)CCC3
    2.5e-08	i	4.1%	i	11%
O=C(CCCCC(=O)NCc1cccs1)NCc1cccs1
    4.2e-09	i	-1.0%	i	7%
COc1ccccc1Nc1ncc(C(=O)N2CCC(C(N)=O)CC2)c2ccccc12
    1.8e-08	i	15%	i	7%[11.4 µM]
CC(O)COC(C)(C)C (stereo not drawn)
    .	.	1.3%	.	-14%
